Bioassay records deposited in PubChem by Emory University Molecular Libraries Screening Center.
Measles inh – inhibitors of measles virus growth in cells, primary screen, measles RdRp inhibitor project, cell-based, single point, HTS | infected Vero cells, GFP fluorescence, 64 h; hits give low values | z-score (concentration not given with the values) | 0.1% of 33,000 active;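 active = z-score under -3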;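 also: score is relative to mean and SD of the compound wells of a plate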
Starred values were filed as active, the others as inactive.

SMILES	Measles inh
CC1CC(C)CN(S(=O)(=O)N2CCCC(C(=O)NCCN3CCCCC3C)C2)C1 (configuration not stated)	0.93
O=C(CN1C(=O)COc2ccccc21)NCCC1=CCCCC1	-0.01
O=C(NCc1cccnc1)c1ccc2c(=O)n(-c3ccccc3)c(=S)[nH]c2c1	-0.38
COc1ccc(CN2C(=O)C3C(c4ccccc4)OC4(C(=O)c5ccccc5C4=O)C3C2=O)cc1 (configuration not stated)	1.03
Cc1cc(Br)c(O)c(C=NCCNC(=O)c2nonc2N)c1	-0.69
CCCSc1nc2sc3c(c2c(=O)n1-c1ccccc1)CC(C)(C)OC3	0.91
O=C1CN(C(=O)c2ccc(S(=O)(=O)N3CCCC3)cc2)C(c2ccc(F)cc2)c2cc(F)ccc2N1 (configuration not stated)	0.95
CC1(C)CC(=O)c2cc(OCC(=O)NC3CCCC3)ccc2O1	-0.41
Cc1ccc(CSC2=NCCN2C(=O)c2ccc(Br)cc2)cc1	0.45
COc1cccc(C2Sc3ccccc3NC3=C2C(=O)c2ccccc23)c1 (configuration not stated)	-1.42
O=C(Nc1ccc(O)c(-c2nc3ccccc3s2)c1)c1ccccc1Oc1ccccc1	-1.06
O=C(Nc1ccc(S(=O)(=O)N2CCCCC2)cc1)c1ccco1	-0.43
CCOc1ccc(C(=O)Nc2cc(C)on2)cc1OCC	-1.04
COCc1cc(C)[nH]c(=O)c1C(=O)NC12CC3CC(CC(C3)C1)C2	0.04
Cc1cc(OCC(=O)Nc2ccc(S(=O)(=O)N3CCc4ccccc43)cc2)ccc1Br	-0.02
CCCCN(C)c1nc(-c2ccccc2)c2c(c1C#N)CC(C)(C)OC2	1.01
COc1ccc(CNC(=O)CSc2n[nH]c(C)c2[N+](=O)[O-])cc1	0.13
O=C(O)C1(c2ccc(Cl)cc2)CCCC1	0.92
O=C(Nc1ccccc1F)c1cc(F)ccc1[N+](=O)[O-]	-0.67
CCC1=Nc2cc(C(=O)NCCN(C)Cc3ccccc3)ccc2Sc2ccc(C)cc21	-1.4

Reprinted from the part before: 3 entries; new compounds follow.
SMILES	Measles inh
O=C(O)C1(c2ccc(Cl)cc2)CCCC1	0.92
O=C(Nc1ccccc1F)c1cc(F)ccc1[N+](=O)[O-]	-0.67
CCC1=Nc2cc(C(=O)NCCN(C)Cc3ccccc3)ccc2Sc2ccc(C)cc21	-1.4
Brc1ccc(-n2cc(-c3ccccc3)c3c(N4CCCCCC4)ncnc32)cc1	-0.39
O=C(Nc1ccc2oc(-c3ccccc3Cl)nc2c1)c1ccc([N+](=O)[O-])cc1	1.61
Cc1ccc2c(c1)c(=O)c1ccccc1n2CC(=O)Nc1cccc([N+](=O)[O-])c1	1.4
COc1ccc(NC(=O)CN(c2cc(C(F)(F)F)ccc2Cl)S(=O)(=O)c2ccccc2)cc1	-0.33
CC1=NN(C(C#N)c2cccc([N+](=O)[O-])c2)C(C)(C)C1 (configuration not stated)	-0.2
CN(C)c1ccc(-c2nc3cc(NC(=O)c4ccccc4Cl)ccc3o2)cc1	0.62
COc1ccc(C2NC(CC(C)C)(C(=O)O)C3C(=O)N(c4ccccc4OC)C(=O)C23)cc1OC (configuration not stated)	1.71
O=C(NCc1ccco1)c1cc(-c2ccco2)on1	0.79
O=[N+]([O-])c1ccc(-n2nnnc2-c2ccccc2)cc1	-0.06
COc1ccc(NC(=O)c2ccc3c(=O)n(CC4CCCO4)c(=S)[nH]c3c2)cc1 (configuration not stated)	-0.11
CCOc1cccc2c1OC1(C)CC2NC(=S)N1c1ccc(Cl)cc1 (configuration not stated)	-0.23
CCOc1cc(C2C(C(=O)OC)=CN(C(C)C)C=C2C(=O)OC)ccc1O	0.01
CC1=CC(C)(C)N(C(=O)CSc2nc3ccccc3[nH]2)c2ccc(C)cc21	0.75
CCN(CC)CCCNc1ncnc2sc3c(c12)CCCC3	0.24
O=C(NCc1ccc(Cl)cc1)c1ccc2c(=O)n(CC3CCCO3)c(=S)[nH]c2c1 (configuration not stated)	0.93
O=C(CSc1nc2ncccc2[nH]1)Nc1ccc(OC(F)(F)Cl)cc1	-1.84
CCc1ccc(CN2C(=O)CCC2(C)C(=O)NC2CCCC2)cc1 (configuration not stated)	0.31
Cc1cc(N2CCOCC2)nc2ccc(NC(=O)c3ccc4c(c3)OCO4)cc12	-0.46
O=[N+]([O-])c1c[n+]([O-])n(-c2ccccc2)n1	-1.46
COc1cc(OC)c(C2CC(=O)Nc3c2ccc2ccccc32)cc1OC (configuration not stated)	0.32

5 entries out of the list, sorted by number of heavy atoms, rising.
SMILES	Measles inh
O=C(Nc1ccccc1F)c1cc(F)ccc1[N+](=O)[O-]	-0.67
CCOc1ccc(C(=O)Nc2cc(C)on2)cc1OCC	-1.04
O=C(CN1C(=O)COc2ccccc21)NCCC1=CCCCC1	-0.01
Brc1ccc(-n2cc(-c3ccccc3)c3c(N4CCCCCC4)ncnc32)cc1	-0.39
O=C1CN(C(=O)c2ccc(S(=O)(=O)N3CCCC3)cc2)C(c2ccc(F)cc2)c2cc(F)ccc2N1 (configuration not stated)	0.95

(cont.)
SMILES	Measles inh
Cc1cc(C)nc(SCC(=O)Nc2nnc(C(F)(F)F)s2)n1	0.38
Cn1c2c(c(=O)n(C)c1=O)C(c1ccc(OC(=O)CN3C(=O)c4ccccc4C3=O)cc1)C1=C(N2)c2ccccc2C1=O (configuration not stated)	-0.2
O=[N+]([O-])c1cccc(S(=O)(=O)Nc2ccc(O)c(Sc3nc4ccccc4s3)c2)c1	-0.14
Cc1cccc(C(=O)NC2(C(F)(F)F)C(=O)Nc3c2c(=O)[nH]c(=O)n3-c2ccccc2)c1 (configuration not stated)	1.18
COc1ccc(Cl)cc1Nc1nc(-c2cc3cc(Cl)ccc3oc2=O)cs1	-0.07
Cc1ccc(N=C2SC(C(=O)NCCc3ccccc3)CC(=O)N2C)cc1C (configuration not stated)	0.41
Cc1cccc(-n2nnc(C(=O)NCc3cccs3)c2N)c1	-0.14
COc1ccc(-n2nc3c(c2NC(=O)c2cccc(C)c2)CSC3)cc1	-0.73
CCCNC(=O)C1(O)c2cc(Br)ccc2NC(=O)N1c1ccc(OCC)cc1 (configuration not stated)	-1.5
CCOC(=O)CNCc1ccc(Cl)cc1	0.19
NC(=O)c1c(NC(=O)CCCCCN2C(=O)c3ccccc3C2=O)sc2c1CCC2	-0.08
O=C(NCc1ccccc1)c1cccn2c(=O)c3ccccc3nc12	-0.53
Cc1ccc(CN2C3=C(C(=O)CC(C)(C)C3)C(c3ccc(C(=O)O)cc3)C3=C2CC(C)(C)CC3=O)cc1	-0.61
O=C(NCc1ccccc1Cl)c1sc(=S)n2c1[nH]c(=O)c1ccccc12	0.17
COC(=O)c1cc(-c2cccnc2)nc2ccccc12	-0.19
COc1ccc(CCNc2ncnc3oc(-c4ccccc4)c(-c4ccccc4)c23)cc1OC	1.19
CC1CCCN(C(=O)c2c[nH]c3ccc(S(=O)(=O)N4CCOCC4)cc3c2=O)C1 (configuration not stated)	-0.53
O=C(CN1C(=O)c2ccccc2C1=O)Nc1cccc(-c2nc3ccccc3c(=O)o2)c1	1.51
O=S(=O)(Nc1ccc(Br)cc1)c1cccc2nsnc12	0.24
CC1=C(C(=O)Nc2ccccc2)C(c2ccc(C(F)(F)F)cc2)NC(=S)N1 (configuration not stated)	-0.09

Arranged by the number under Measles inh (highest first): three of the compounds above.
SMILES	Measles inh
Cc1ccc(N=C2SC(C(=O)NCCc3ccccc3)CC(=O)N2C)cc1C (configuration not stated)	0.41
Cc1cc(C)nc(SCC(=O)Nc2nnc(C(F)(F)F)s2)n1	0.38
CC1CCCN(C(=O)c2c[nH]c3ccc(S(=O)(=O)N4CCOCC4)cc3c2=O)C1 (configuration not stated)	-0.53

(more compounds)
SMILES	Measles inh
O=[N+]([O-])c1ccc2nn(Cc3ccco3)cc2c1	0.44
CCCCNC(=O)c1cc(C)nc2ccccc12	0.42
Cc1ccc(CCNC(=O)C2CCC(=O)N2C(C)C)cc1 (configuration not stated)	0.41
O=C(Nc1nonc1NC(=O)c1ccccc1)c1ccccc1	-1.23
O=C(Nc1ccc(Cl)cc1)c1cc(S(=O)(=O)N2CCCCCC2)ccc1F	0.95
O=[N+]([O-])c1ccc(N2CCN(S(=O)(=O)c3cccc4nonc34)CC2)cc1	-1.29
O=[N+]([O-])c1cc2c(cc1C=Nc1cccc(-c3nc4cc(Cl)ccc4o3)c1)OCO2	-1.85
CCOc1ccccc1-n1c(=S)sc2c(=O)n(-c3ccc(F)cc3)c(SCC(=O)O)nc21	-0.28
COc1ccccc1C(O)c1cnc(C(C)C)n1C (configuration not stated)	-2.06
CN(Cc1ccccc1)C(=O)CC(C)(C)CC1=NS(=O)(=O)c2ccccc2N1	0.14
COc1cc(NC(=O)c2ccccc2C)c(OC)cc1Cl	-0.79
O=C(Nc1ccccc1O)c1ccc(Oc2ccc([N+](=O)[O-])cc2)cc1	-0.09
COC(=O)c1sc2nc(C)c(Cl)c(C)c2c1-n1cccc1	-0.75
CC(C)(C)C(=O)CN1CCN(CC(=O)Nc2ccc(Br)cc2)CC1	-1.04
O=C(CN1CCCC1)Nc1c2c(nc3c1CCC3)CCC2	0.79
CCCC(=O)NCCCc1nc2ccccc2n1Cc1cc(C)ccc1C	-0.01
Cc1ccc2oc(-c3ccc(C)c(NC(=O)c4ccc(Cl)c([N+](=O)[O-])c4)c3)nc2c1	0.34
O=C(CCN1C(=O)C2C3C=CC(C3)C2C1=O)Nc1ccc(F)cc1 (configuration not stated)	0.63
Oc1ccccc1C=Nc1ccc(C2Nc3ccccc3C3C=CCC32)cc1 (configuration not stated)	0.97
O=C(Nc1ccc(O)c(-c2nc3ccccc3s2)c1)c1ccc(S(=O)(=O)N2CCCCC2)cc1	0.55
Cc1ccc2c(c1)sc1nc(-c3cc4cc(Cl)ccc4oc3=O)cn12	-0.45
CC1C=CCC2C(=O)N(c3cccc(Cl)c3)C(=O)C12 (configuration not stated)	0.34
CCc1ccc(-n2cnc3cc(C(=O)N4CCOCC4)ccc32)cc1	-0.02
COc1ccc(-n2c(=S)[nH]c3cc(C(=O)NCc4ccccc4Cl)ccc3c2=O)cc1	2.57
COc1ccc(C(=O)Nc2cc3ccccc3oc2=O)cc1OC	0.27
CC(C)OC(=O)C1C(=O)CC(C)(O)C(C(=O)OC(C)C)C1c1cccc([N+](=O)[O-])c1 (configuration not stated)	0.78
Cn1c(=O)cc(SCC(=O)N2CCN(Cc3ccccc3)CC2)c2ccccc21	-0.2
Cc1c(C(=O)NC2CCN(Cc3ccccc3)CC2)sc2ncn(C)c(=O)c12	0.6
CS(=O)(=O)N1CCN(c2ccc([N+](=O)[O-])c(NC3CC3)c2)CC1	-0.94
CC(=O)NCC(=O)NC(C(=O)Nc1ccc2c(c1)OCCO2)c1ccccc1 (configuration not stated)	-0.53
CC1CC(C)CN(C(C(=O)Nc2ccc(C(C)C)cc2)c2ccc3c(c2)OCO3)C1 (configuration not stated)	2.07
Cc1ccc2c(c1)N(CC(=O)NCCN(C)C)C(=O)CO2	-0.1
Cc1ccc(S(=O)(=O)Nc2cc(C(=O)NCCc3ccc(Cl)cc3)ccc2N2CCCCC2)cc1	0.85
CCOC(=O)CSc1nc2cc(OC)c(OC)cc2c2nc(C)nn12	0.12
COc1cc(C(=O)N2CCN=C2SCc2ccc(Br)cc2)cc(OC)c1OC	0.25
c1ccc(CN2CCC3(CC2)Oc2ccccc2C2CC(c4ccco4)=NN23)cc1 (configuration not stated)	0.2
CCOc1ccc(C2=NN3C(C2)c2cc(Cl)ccc2OC3c2ccc(C(=O)OC)cc2)cc1 (configuration not stated)	1.83
Cc1cccc(NC(=O)CNS(=O)(=O)c2cccs2)c1C	-1.11
O=C(NCc1cccs1)c1ccc(N2CC3CC(C2)c2cccc(=O)n2C3)c(NC(=O)c2cccs2)c1 (configuration not stated)	0.6
Cc1ccc(S(=O)(=O)Nc2cc3c(C(=O)OC(C)C)c(C)oc3c3ccccc23)cc1[N+](=O)[O-]	-0.08
O=c1[nH]cc(NC2CCCCC2)c(=O)[nH]1	-0.13
O=C1c2ccccc2C(=O)c2c(Sc3ccccc3)cccc21	0.55
COc1ccc(C2c3sc(=O)[nH]c3SC3C4CC(C5C(=O)N(CCC(=O)O)C(=O)C45)C23)cc1OC (configuration not stated)	-1.82
CCOC(=O)C1=C(C)Nc2nc3ccccc3n2C1c1ccc([N+](=O)[O-])cc1 (configuration not stated)	0.13
COC(=O)c1c(NC(=O)c2cc([N+](=O)[O-])ccc2Cl)sc2c1CCCC2	-1.06
Cc1ccccc1-c1noc(-c2cccc([N+](=O)[O-])c2)n1	1.14
COc1ccc(C2=NN(C(=O)CCC(=O)O)C(c3ccccc3OC)C2)cc1 (configuration not stated)	0.15
COCc1cc(=O)[nH]c(/N=C(\N)Nc2cccc3ccccc23)n1	1.34
CCOC(=O)C1=C(C)NC2=C(C(=O)c3ccccc32)C1c1cc(Br)ccc1OCC(=O)O (configuration not stated)	-2.31
O=C(O)c1cc2n(n1)C(C(F)(F)F)CC(c1ccc(Cl)cc1)N2 (configuration not stated)	0.14
Cc1ccc2c(c1)N(CC(=O)N1CCCC1)C(=O)CO2	-0.31
CCCc1cc2c(=O)c(-c3ccccc3)coc2cc1O	1.05
CN(Cc1ccccc1)C(=O)c1cccc(N2C(=O)NC3CC2(C)Oc2ccccc23)c1 (configuration not stated)	-0.24
CCSc1nnc2c(n1)OC(c1cccc([N+](=O)[O-])c1)Nc1ccccc1-2 (configuration not stated)	-0.28
O=C1Nc2ccc(Br)cc2C(O)(C(=O)NC2CCCc3ccccc32)N1c1ccccc1 (configuration not stated)	-1.61
Cc1oc2cc(Br)c(O)cc2c1C(=O)OC(C)C	-1.14
O=C(CSc1nc2ccccc2[nH]1)Nc1ncc([N+](=O)[O-])s1	0.63
c1ccc(Oc2cccc(CSc3nc4ccccc4[nH]3)c2)cc1	-0.07
COc1ccc(C2CC(C(F)(F)F)n3nc(C(=O)Nc4ccc(Cl)cc4)cc3N2)cc1OC (configuration not stated)	0.67

Some of the compounds tested (hit frequency here may not be typical).
